# From PubChem
# Vaccinia Venus = vaccinia inhibition (Venus reporter); Vaccinia virus Venus reporter expression, fluorescence; Potency, µM (highest dose often 36.5 µM), for the others: top-dose activity change, negative = inhibition, hits mostly inhibitors; 330,000 compounds, 0.46% hits; AID 720580; active means well fitted inhibition curve with a large enough effect; inconclusive means small, poorly fitted or top-dose-only effect; inactive means no such curve, though single readings can be large or run the other way; tested in A549 cells; further: nearly all actives have a fitted effect of over 30% in size; inactives centre near -10
# VACV mCherry inh = vaccinia inhibition (mCherry reporter); Potency, µM (top dose mostly 36.5 µM), without a hit: at the top dose activity change, negative = inhibition, hits mostly inhibitors; 310,000 compounds, 0.63% hits; Vaccinia virus mCherry reporter infection, fluorescence; about a quarter of the inactives have no number; AID 720579; active = well fitted inhibition curve with a large enough effect; inconclusive = small, poorly fitted or top-dose-only effect; inactive = no such curve, though single readings can be large or run the other way; tested in A549 cells; further: nearly all actives have a fitted effect of over 35% in size; inactives centre near -10
# Numbers without * were called inactive; i = inactive; ? = inconclusive; · = not tested or not shown; & = joins results of further samples; [ ] = remark or other dose. On the % scale 0 is the no-effect control and ±100 the full control effect; potency means the concentration at half of the fitted maximal effect.
SMILES,Vaccinia Venus,VACV mCherry inh
CCCSC1=NC2(CCN(C(=O)NC3CCCCC3)CC2)N=C1c1ccc(C)cc1,7.0%,0.3%
CC1CCN(S(=O)(=O)N2CCC(C(=O)NCc3ccc(F)cc3Cl)CC2)CC1,-19.2%,i
CCCCN1C[C@H](Cc2ccccc2)[C@@H](CC(=O)NC)C1=O,-8.1%,-4.2%
Cc1cc(C)nc(-n2ncc3c2CC(c2cccc(Cl)c2)CC3=O)n1 (stereo not drawn),?,10µM*
N#Cc1c(-n2cccc2/C=N/O)sc2c1CCCC2,-20.4%,?
CC(OC(=O)c1ccc2c(=O)n3c(nc2c1)CCCCC3)C(N)=O (stereo not drawn),-2.4%,-2.9%
CC(=O)NCCNc1nc(NCc2ccccc2)nc2ccsc12,-6.5%,-28.9%
COc1ccc(CNC(=S)Nc2cc(C)cc(C)c2)cc1,-17.2%,-14.6%
COc1ccc(CCN2C(=O)CN=C2Nc2ccc(F)cc2)cc1OC,-3.1%,-4.4%
COc1ccc(N2CCN(c3cc(C)c4ccc(C)cc4n3)CC2)cc1,-14.2%,-0.5%
C[C@@H]1CN([C@H](C)CO)C(=O)c2cc(Br)cnc2O[C@@H]1CN(C)C(=O)NC1CCCC1,5.7%,i
CC(C)=CCC/C(C)=C/CNC(=O)C[C@H]1C[C@H](C(=O)N2CCOCC2)[C@@]2(C)c3[nH]c4ccc(Cl)cc4c3CCN2C1=O,?,?
CCn1c(=N)n(CC(O)c2cccs2)c2ccccc21 (stereo not drawn),-12.4%,-1.0%
CCOc1ccc(/C=C/C(=O)Nc2ccccc2C(F)(F)F)cc1,-15.6%,-14.2%
Cc1ccc([C@H]2C[C@H](O)[C@@H](n3cc(-c4ccc(F)cc4)nn3)CN2C(=O)c2cccs2)cc1,?,i
COc1ccc(CC(N)c2csc(NC(=O)Nc3ccc(F)cc3)n2)cc1 (stereo not drawn),-13.1%,-25.7%
O=C(O)c1ccccc1SC1CC(=O)N(c2ccccc2)C1=O (stereo not drawn),-4.4%,-8.6%
CC(C)CC(NC(=O)c1cccc(Cl)c1)C(=O)O (stereo not drawn),-3.2%,i
Cc1cccc2sc(N(CCCN(C)C)C(=O)c3ccco3)nc12,-10.5%,1.4%
COc1cccc(-c2nccc(NC3CCNCC3)n2)c1,6.2%,9.4%
CC(Nc1cccc2ccccc12)C(=O)N/N=C/c1ccc([N+](=O)[O-])cc1 (stereo not drawn),-19.5%,-29.8%
CC(=O)c1ccc(NC(=S)NCCc2ccccn2)cc1,-9.9%,-17.9%
CCOc1ccccc1CNC(=O)C1CCN(c2nn3c(=O)cc(C)nc3s2)CC1,0.0%[7.34 µM],-10.0%[7.34 µM]
CCc1ccc(NC(=O)c2ccc(S(=O)(=O)NCc3cccnc3)cc2)cc1,-14.9%,-11.8%
O=C(COC(=O)c1cc([N+](=O)[O-])ccc1N1CCOCC1)Nc1ccc(Cl)cn1,28.2µM*,?
O=Cc1ccc(C(=O)OCC(=O)NCc2ccco2)cc1,-2.5%,-11.6%
C=CCOc1ccc(CNc2ccc3[nH]c(=O)[nH]c3c2)cc1OCC,-2.5%,-6.0%
COC(=O)c1c(NC(=O)c2nc(SC)ncc2Cl)sc2c1CCCC2,30.5%[activator],13.0%
O=C(O)C1Oc2ccccc2C1c1ccccc1 (stereo not drawn),-6.1%,-1.2%
COc1ccc(N(Cc2cc3cc(OC)ccc3[nH]c2=O)C(=O)C2CCCO2)cc1 (stereo not drawn),-16.4%,·
COc1ccc(/C=C(\NC(=O)c2ccccc2)C(=O)OCC2CCCN3CCCCC23)cc1OC (stereo not drawn),-16.6%,-12.8%
COc1ccc(C2=NN(C(=O)CN3CCOCC3)C(c3nc4ccccc4[nH]3)C2)cc1 (stereo not drawn),-1.9%,-9.5%
Cc1cn(C2CC(N=[N+]=[N-])C(CO)O2)c(=O)[nH]c1=O (stereo not drawn),8.1%,6.5%
CN(C)C(=O)CSc1ncccc1-c1nc2ccccc2[nH]1,0.0%,-7.1%
CNC(=S)N/N=C(\C)c1ccc2c(c1)OCO2,-5.0%,-3.1%
CCCCSc1nnc2c(n1)OC(c1ccc(Br)s1)N(C(C)=O)c1ccccc1-2 (stereo not drawn),-2.7%,i
COc1cccc(/C=C(/C(=O)OCC(=O)NCC2CCCO2)c2ccccc2)c1 (stereo not drawn),-8.0%,-11.8%
O=C1CCC(c2ccccc2)(c2ccccc2)CC1,-8.0%,i
O=C(N/N=C/c1cc([N+](=O)[O-])c(N2CCOCC2)cc1N1CCOCC1)c1cccnc1,-12.1%,i
O=C(Nc1cccc(F)c1)Nc1ccc2c(c1)C(=O)OC2,-12.9%,i
CC(=O)Nc1cccc(N=NN2CCOCC2)c1,-5.7%,-9.1%
CCc1nc2ccc(C(=O)N3CCN(c4ccccc4F)CC3)cc2nc1CC,-10.9%&-8.7%,-17.5%&-4.7%
CCOc1ccc(NC(=O)C(=O)NCc2ccncc2)cc1,-25.8%,?
Cc1ccc(-n2c(-c3ccc([N+](=O)[O-])cc3)nc3ccccc3c2=O)cc1,-2.9%,i
CC12CCC(C(=O)N3CCc4ccccc43)(CC1=O)C2(C)C (stereo not drawn),-26.5%,-11.0%
COc1ccc(-c2cc(=O)c3c(O)cc(O)cc3o2)cc1,-18.1%&-19.9%,-27.6%&-22.9%
O=C(NCCc1ccccc1)c1nc(-c2ccc(Cl)cc2)n2c1CCCCC2,-15.5%,-25.5%
CCCCOc1ccccc1C(=O)N(Cc1ccc(C)o1)C1CCS(=O)(=O)C1 (stereo not drawn),-9.0%,-9.4%
COc1ccccc1NC(=O)CSc1nnc(Cc2cccn2C)n1-c1ccc(F)cc1,-6.0%,-12.4%
CCOc1ccccc1C(=O)N1CCc2cc(OC)c(OC)cc2C1COc1ccc2c(C)cc(=O)oc2c1 (stereo not drawn),-19.8%,-28.0%
O=C(/C=C/Nc1ccc(S(=O)(=O)Nc2cnc3ccccc3n2)cc1)c1ccccc1,-15.8%,-11.5%
S=c1[nH]nc(-c2cc3c(s2)-c2ccccc2CC3)o1,?,·
CCOC(=O)C1=C(C)NC(=O)C(C(N)=O)C1c1ccccc1 (stereo not drawn),-4.9%,-6.2%
CCCCn1c(N)c(N(CC)C(=O)c2cccc(C)c2)c(=O)[nH]c1=O,-4.5%,-0.1%
COc1ccc(-c2[nH]ncc2CN2CCOc3c(cc(-c4cccc(OC)n4)cc3OC)C2)cc1,-3.8%,i
COc1ccc(OC)c(NC(=O)CNC(=O)Cn2c(C)cc3ccccc3c2=O)c1,-14.1%,-24.3%
O=C(N/N=C/c1cccnc1)NC12CC3CC(CC(C3)C1)C2,-5.9%[7.34 µM],-11.2%[7.34 µM]
O=C1C=C(N2CCOCC2)CCC1,-11.6%,i
Cc1ccc([C@@H]2C[C@H]3[C@@H](CN2S(=O)(=O)c2ccc(Cl)cc2)C(=O)C[C@@H](c2ccccc2F)N3S(=O)(=O)c2ccc(C)cc2)cc1,-2.7%,i
CCOc1ccccc1NC(=O)Cn1c(=O)n(-c2ccc(F)cc2)c(=O)c2sc3ccccc3c21,0.0%,-6.0%
# Following part
SMILES,Vaccinia Venus,VACV mCherry inh
ClCCN(CCCl)c1ccc(C=Nc2ccncc2)cc1,4.5%,-21.0%
Cc1ccc(NC(=O)N2CCC(C(N)=O)CC2)cc1,-5.5%,i
O=C(Nc1ccccc1Oc1ccccc1)C1CCCC1,-3.3%,-19.6%
CCc1ccc(OCC(=O)NCC(c2ccc(Cl)cc2)N2CCOCC2)cc1 (stereo not drawn),-12.9%,-16.0%
Cc1cc(N2CCCCC2)nc(NCc2ccccc2)n1,?,?
CN(CC(=O)Nc1ccc(F)cc1)C(=O)CSc1ncccn1,-11.0%,-14.4%
NC(=O)C(C1=CCCCC1)c1ccccc1 (stereo not drawn),-2.7%,i
COc1ccc(/C=C/c2noc(-c3ccccc3OC(C)=O)n2)cc1,-5.5%,-13.1%
N#Cc1ccsc1NC(=O)CN1CCN(S(=O)(=O)c2cc(Cl)ccc2Cl)CC1,-26.2%,-10.9%
Cc1ccc(C2=NS(=O)(=O)N(C)C(C(=O)NC(C)c3ccccc3)=C2)cc1 (stereo not drawn),-9.2%,-4.5%
Cc1ccc(S(=O)(=O)NC(=O)Nc2c(C)n(C)n(-c3ccccc3)c2=O)cc1,-2.6%,-11.9%
COc1ccc(CN2CCN(C3CCSCC3)CC2CCO)c(C)c1C (stereo not drawn),-14.0%,-17.3%
COc1ccc2c(c1)[nH]c1c(=O)n(CCN3CCCC3)cnc12,-9.0%,·
CCOC(=O)[C@]12CCCC=C1N(Cc1ccccc1)C(=O)[C@H](CC(=O)NCc1cccs1)C2,-23.8%,-28.3%
O=[N+]([O-])c1ccc(S(=O)(=O)N/N=C/c2cccs2)cc1,-3.0%,i

# Already shown: 19 of the compounds above.
SMILES,Vaccinia Venus,VACV mCherry inh
O=C(N/N=C/c1cccnc1)NC12CC3CC(CC(C3)C1)C2,-5.9%[7.34 µM],-11.2%[7.34 µM]
O=C1C=C(N2CCOCC2)CCC1,-11.6%,i
Cc1ccc([C@@H]2C[C@H]3[C@@H](CN2S(=O)(=O)c2ccc(Cl)cc2)C(=O)C[C@@H](c2ccccc2F)N3S(=O)(=O)c2ccc(C)cc2)cc1,-2.7%,i
CCOc1ccccc1NC(=O)Cn1c(=O)n(-c2ccc(F)cc2)c(=O)c2sc3ccccc3c21,0.0%,-6.0%
ClCCN(CCCl)c1ccc(C=Nc2ccncc2)cc1,4.5%,-21.0%
Cc1ccc(NC(=O)N2CCC(C(N)=O)CC2)cc1,-5.5%,i
O=C(Nc1ccccc1Oc1ccccc1)C1CCCC1,-3.3%,-19.6%
CCc1ccc(OCC(=O)NCC(c2ccc(Cl)cc2)N2CCOCC2)cc1 (stereo not drawn),-12.9%,-16.0%
Cc1cc(N2CCCCC2)nc(NCc2ccccc2)n1,?,?
CN(CC(=O)Nc1ccc(F)cc1)C(=O)CSc1ncccn1,-11.0%,-14.4%
NC(=O)C(C1=CCCCC1)c1ccccc1 (stereo not drawn),-2.7%,i
COc1ccc(/C=C/c2noc(-c3ccccc3OC(C)=O)n2)cc1,-5.5%,-13.1%
N#Cc1ccsc1NC(=O)CN1CCN(S(=O)(=O)c2cc(Cl)ccc2Cl)CC1,-26.2%,-10.9%
Cc1ccc(C2=NS(=O)(=O)N(C)C(C(=O)NC(C)c3ccccc3)=C2)cc1 (stereo not drawn),-9.2%,-4.5%
Cc1ccc(S(=O)(=O)NC(=O)Nc2c(C)n(C)n(-c3ccccc3)c2=O)cc1,-2.6%,-11.9%
COc1ccc(CN2CCN(C3CCSCC3)CC2CCO)c(C)c1C (stereo not drawn),-14.0%,-17.3%
COc1ccc2c(c1)[nH]c1c(=O)n(CCN3CCCC3)cnc12,-9.0%,·
CCOC(=O)[C@]12CCCC=C1N(Cc1ccccc1)C(=O)[C@H](CC(=O)NCc1cccs1)C2,-23.8%,-28.3%
O=[N+]([O-])c1ccc(S(=O)(=O)N/N=C/c2cccs2)cc1,-3.0%,i

# New compounds follow
SMILES,Vaccinia Venus,VACV mCherry inh
O=C(CN1CCOCC1)N1CCN(c2ccc([N+](=O)[O-])cc2)CC1,-6.0%,i
O=C(Cn1c(-c2ccccc2)noc1=O)Nc1ccc(S(=O)(=O)N2CCOCC2)cc1,-0.3%,-1.5%
Cc1ccc(-c2nc(CCNC(=O)c3ccco3)cs2)cc1,-3.3%,-16.7%
CCCNC(=O)C(=O)NCC1CCCN1CC (stereo not drawn),9.7%,2.4%
O=S1(=O)CC(N2CCCCC2)CN1Cc1cn(Cc2cccc(Cl)c2)nn1 (stereo not drawn),1.7%,16.2%
COc1ccc(/C=C/c2ccc(=O)n(Cc3ccccc3)n2)cc1,-20.2%,-10.2%
Cc1ccc(S(=O)(=O)NCC(=O)OCc2nnc(-c3ccccc3)o2)cc1,-5.5%,-17.3%
CN1CCC(OC(=O)c2ccccc2)CC1,-5.2%,i
CCOC(=O)c1ccc(NC(=O)c2oc3c(c2C)-c2nn(Cc4ccccc4Cl)cc2CC3)cc1,-17.0%,-11.4%
CCOC(=O)C1CCCN(c2ncnc3c2cnn3-c2ccc(OC)cc2)C1 (stereo not drawn),-4.1%,-8.4%
N#Cc1nc(COc2ccccc2)oc1NCCN1CCOCC1,-8.5%,-13.6%
Cc1cccc(C)c1NC(=O)C(c1ccnc2ccccc12)n1c(=O)c(-c2ccco2)nc2ccccc21 (stereo not drawn),-7.9%,-14.8%
Cc1nn2c3ccccc3n(CCN3CCCCC3)c2nc1=O,-7.3%,-8.5%
